PV pol inh – poliovirus RdRp elongation inhibitors, primary screen, biochemical, fluorescence polarization, total intensity | Genome polyprotein (Poliovirus type 1 (strain Mahoney)), P03300 | poliovirus polymerase elongation; hits give low values | % elongation, % (compound at 16.7 µg/mL) | actives 0.66% (n = 150,000) | AID 588519, 2011; in the data active = % elongation below about 90%; note: some results filed as inactive read as strong as hits
Target sequence (P03300 1749-2209 limits assumed): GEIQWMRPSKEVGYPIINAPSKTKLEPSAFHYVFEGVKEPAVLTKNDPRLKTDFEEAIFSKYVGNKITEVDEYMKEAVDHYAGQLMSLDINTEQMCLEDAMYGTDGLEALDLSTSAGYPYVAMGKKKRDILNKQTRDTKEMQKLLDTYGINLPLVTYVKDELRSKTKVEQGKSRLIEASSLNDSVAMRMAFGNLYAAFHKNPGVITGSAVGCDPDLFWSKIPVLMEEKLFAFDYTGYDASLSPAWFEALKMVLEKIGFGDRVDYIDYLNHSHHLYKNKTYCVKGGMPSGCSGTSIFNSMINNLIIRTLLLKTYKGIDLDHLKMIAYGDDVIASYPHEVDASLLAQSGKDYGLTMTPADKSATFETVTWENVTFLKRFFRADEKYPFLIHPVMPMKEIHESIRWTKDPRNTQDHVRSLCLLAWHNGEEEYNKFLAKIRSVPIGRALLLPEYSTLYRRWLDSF
PV pol inh intensity – also measured in PV pol inh; calls as there; % elongation; measured here: total intensity read-out; formula for this scale not given here;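 total fluorescence in place of polarization; lower means less elongation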
Numbers without * were called inactive. Not all compounds are listed; count on the stated rates, not on these rows.

Screens in order – PV pol inh, PV pol inh intensity
COc1ccc(-c2nn3c(=O)cc(CN4CCN(C(=O)/C=C/c5ccccc5)CC4)nc3s2)cc1
 : 107, 108
CCn1nc(C)c(CCN(C)C(=O)Nc2ccc(C)c(Cl)c2)c1C
 : 111, 114
COc1ccc(-c2cc(-c3ccccc3)nc(SCC(=O)Nc3ccccc3C)c2C#N)cc1
 : 100, 104
CCc1ccc(NCc2cc3ccc(OC)cc3n(CC(=O)Nc3ccccc3C)c2=O)cc1
 : 110, 109
CCOC(=O)C1CCCN(CCC(=O)Nc2ccc(OC)cc2OC)C1 (stereo not given)
 : 101, 98
COc1ccc(C2=C(Nc3ccc(Br)c(C)c3)c3ccccc3C2=O)cc1
 : 110, 107
CCOC(=O)c1cc2c(=O)n3ccccc3nc2n(CC(C)C)c1=NC(=O)c1cc2ccccc2o1
 : 106, 110
Cc1cccc(C(=O)Nc2cccc(C(=O)OCc3cc(=O)n4nc(C5CC5)sc4n3)c2)c1
 : 111, 115
CCc1ccccc1NS(=O)(=O)c1ccc2c(c1)CCCN2C(=O)C1CCC1
 : 101, 102
COc1ccc(Cn2ccnc2SCC(=O)Nc2ccc3c(c2)OCO3)cc1
 : 109, 111
COc1ccc(NC2=C(c3ccccc3)C(=O)c3ccccc32)cc1Cl
 : 108, 106
CC1=C(C(N)=O)C(c2cccc(F)c2)n2nc(SCc3ccccc3)nc2N1 (stereo not given)
 : 104, 98
Cc1ccc(CNc2oc(-c3ccc(COc4ccc(C)cc4)o3)nc2C#N)cc1
 : 112, 111
CCOC(=O)C1CCN(C(=O)c2ccc3c(=O)n4nc(Nc5ccccc5)sc4nc3c2)CC1
 : 101, 96
COc1cccc(NC(=O)Cn2c(=O)n(CCc3cccc(C)c3)c(=O)c3ccccc32)c1
 : 107, 112
Cc1cccn2c(=O)cc(COc3ccc(NC(=O)COc4ccc(F)cc4)cc3)nc12
 : 111, 112
O=C(c1ccccc1)c1ccc2nc(N3CCN(c4ccc(F)cc4)CC3)c3nncn3c2c1
 : 103, 104
O=C(NCc1ccc(F)cc1)C(=O)Nc1ccc2nc3n(c(=O)c2c1)CCCCC3
 : 108, 113
Cc1ccc(S(=O)(=O)c2c(Nc3cc(F)ccc3F)sc(C(=O)c3ccc(F)cc3)c2N)cc1
 : 106, 112
CC(C)c1ccc(-c2nc(C(N)=O)c3c(n2)n(-c2ccc4c(c2)OCO4)c(=O)n3C)cc1
 : 111, 99
CCOc1ccc(-c2cc3c(=O)n(CC(=O)NCc4ccc(Cl)cc4)ccn3n2)cc1
 : 105, 111
CCc1nn(CC(=O)NCCc2ccc(Cl)cc2)c(=O)c2cc3c(OC)cccc3n12
 : 101, 105
CCCCCn1c(=O)[nH]c2cc(C(=O)Nc3cc(C)cc(C)c3)ccc2c1=O
 : 104, 110
CCOC(=O)c1sc2ccccc2c1S(=O)(=O)N1CCN(c2cccc(C)c2)C(C)C1 (stereo not given)
 : 109, 111
CCOC(=O)Cc1ccc(NC(=O)N2CCOc3ccc(C)cc32)cc1
 : 106, 108
COc1ccc(N2CCN(C(CNC(=O)c3c(F)cccc3F)c3ccc4c(c3)OCO4)CC2)cc1 (stereo not given)
 : 106, 107
CCc1nc2ccc(C(=O)N3CCN(c4ccccc4)CC3)cc2nc1CC
 : 109, 97
COc1cc2c(cc1OC)C(COc1cc(C)cc(C)c1)N(C(=O)C(C)(C)C)CC2 (stereo not given)
 : 110, 113
Cn1c(=O)c(C(=O)O)nn(-c2ccccc2)c1=O
 : 107, 109
CCCCN(CCCC)CCCNC(=O)c1ccc2nc(N3CCCCC3)sc2c1
 : 114, 117

Part of the list above in order of length of the SMILES, low to high.
Screens in order – PV pol inh, PV pol inh intensity
COc1ccc(NC2=C(c3ccccc3)C(=O)c3ccccc32)cc1Cl
 : 108, 106
CCc1ccccc1NS(=O)(=O)c1ccc2c(c1)CCCN2C(=O)C1CCC1
 : 101, 102
CCCCCn1c(=O)[nH]c2cc(C(=O)Nc3cc(C)cc(C)c3)ccc2c1=O
 : 104, 110
COc1cccc(NC(=O)Cn2c(=O)n(CCc3cccc(C)c3)c(=O)c3ccccc32)c1
 : 107, 112
Cc1cccc(C(=O)Nc2cccc(C(=O)OCc3cc(=O)n4nc(C5CC5)sc4n3)c2)c1
 : 111, 115
CCOC(=O)c1cc2c(=O)n3ccccc3nc2n(CC(C)C)c1=NC(=O)c1cc2ccccc2o1
 : 106, 110
Cc1ccc(S(=O)(=O)c2c(Nc3cc(F)ccc3F)sc(C(=O)c3ccc(F)cc3)c2N)cc1
 : 106, 112

Further entries
Screens in order – PV pol inh, PV pol inh intensity
Cc1cc(Nc2cccc(Cl)c2)nc2ccc(NC(=O)c3cncc(Br)c3)cc12
 : 101, 101
CCOc1ccc(N(CC)S(=O)(=O)N2CCCC(C(=O)NCc3ccccc3Cl)C2)cc1 (stereo not given)
 : 101, 106
Cc1ccc(Cc2cnc(NC(=O)C3Cc4ccc(C)cc4C(=O)O3)s2)cc1 (stereo not given)
 : 108, 109
CCOC(=O)C1CCC(CN(Cc2ccc(Cl)cc2)S(=O)(=O)c2ccc(Br)cc2)CC1 (stereo not given)
 : 109, 106
COc1ccccc1C(=O)Nc1ccc(S(=O)(=O)Nc2nc(C)cc(C)n2)cc1
 : 101, 100
Cc1ccc(C)c(CSc2cn(CCNC(=O)c3ccccc3F)c3ccccc23)c1
 : 106, 110
COc1ccccc1NC(=O)c1cc(S(=O)(=O)N(C)C2CCCCC2)ccc1F
 : 110, 112
CCOc1ccc(C2CC(=O)c3c([nH]c(C(=O)OCC4CCCCC4)c3C)C2)cc1 (stereo not given)
 : 107, 107
Cc1cc2nc(-c3cccc(NC(=O)CSc4ccc(Cl)cc4)c3)oc2cc1C
 : 109, 112
O=C(NCCc1ccccc1)c1nn(-c2ccccc2Cl)nc1CO
 : 106, 102
CCOC(=O)C(CC)n1nc(C)n2c(cc3occc32)c1=O (stereo not given)
 : 108, 110
O=C(COc1ccc(F)cc1)Nc1ccccc1OCc1cc(=O)n2ccccc2n1
 : 106, 106
Cn1c(=O)[nH]c(=O)c2c1nc(NCCO)n2CC(O)COc1ccccc1 (stereo not given)
 : 104, 106
O=C(Nc1cccc(Cl)c1)N1CCC(CN2CCOCC2)CC1
 : 103, 106
CCc1c(C)c2ccc(O)c(CN3CCN(c4cc(Cl)ccc4C)CC3)c2oc1=O
 : 113, 109
COc1cccc(C(c2sc3nc(-c4ccco4)nn3c2O)N2CCC(C)CC2)c1 (stereo not given)
 : 109, 112
Cc1cc(=O)n2nc(N3CCC(C(=O)Nc4ccc(C(C)C)cc4)CC3)sc2n1
 : 108, 109
CCOc1ccccc1CNCCSc1nnnn1C
 : 104, 107
CSc1nn(CC(=O)Nc2cc(C)ccc2C)c(N)c1S(=O)(=O)c1ccccc1
 : 104, 107
Cc1ccc(Cl)cc1N1CCN(C(=O)c2cc3ccc4cccnc4c3[nH]2)CC1
 : 109, 98
CCc1nc2cccnc2n1-c1ccc(CC(=O)Nc2cccc(C)c2C)cc1
 : 104, 104
COc1ccc(NC(=O)Cn2nnnc2-c2ccccc2F)c(C)c1
 : 100, 106
COc1ccc(C2C=C(c3ccc(Cl)cc3)Nc3nc(-c4ccc(Cl)cc4)nn32)cc1 (stereo not given)
 : 103, 148
Clc1cccc(-n2ncc3c(Nc4ccc5c(c4)OCCO5)ncnc32)c1
 : 111, 111
COc1ccc(CC(=O)Nc2ccc3nc(Nc4cccc(Cl)c4)cc(C)c3c2)cc1OC
 : 112, 112
CN(Cc1ccccc1)S(=O)(=O)c1ccc2[nH]c3c(c2c1)CCCCC3
 : 102, 108
O=C1CSC2(C(=O)N(Cc3cccc(F)c3)c3ccccc32)N1c1cccc(C(F)(F)F)c1 (stereo not given)
 : 106, 109
Cc1ccc2c(=O)c(C(=O)c3ccc(F)cc3)cn(CC(=O)Nc3ccc4c(c3)OCCO4)c2n1
 : 119, 119
Cc1ccc(C2c3c(-c4ccccc4O)n[nH]c3C(=O)N2CCc2ccccc2)cc1 (stereo not given)
 : 109, 99
CC(=O)c1ccc(NC(=O)CSc2cn(CC(=O)N3CCCCCC3)c3ccccc23)cc1
 : 106, 107

More entries.
Screens in order – PV pol inh, PV pol inh intensity
CCC(=O)N1CCc2cc(S(=O)(=O)CCC(=O)N3CCN(c4cc(C)ccc4C)CC3)ccc21
 : 114, 115
Cc1ccc(CNC(=O)c2nnc(Cc3ccc(Cl)cc3)o2)cc1
 : 106, 111
COCCCNC(=O)C1CCN(c2nnc(-n3cccc3CNc3ccc(C)cc3)s2)CC1
 : 109, 110
O=C(CCC(=O)N1CC2CCCN2c2ccccc21)NCc1ccc(F)cc1 (stereo not given)
 : 111, 112
COc1ccc(NC(=O)Cn2c(SCc3ccc(F)cc3)nc3cccnc32)cc1OC
 : 115, 107
COc1ccc2c(Sc3ccc(C)cc3)c(C(=O)NCc3ccc(F)cc3)[nH]c2c1
 : 105, 112
COc1ccccc1NC(=O)c1cnn(-c2ccccc2)c1-n1cccc1
 : 102, 103
COc1ccc(-c2cc3ccc(O)c(CN4CCOCC4)c3oc2=O)cc1
 : 107, 115
COc1ccc(Nc2cc(C(=O)NCCc3ccc(C)cc3)c3ccccc3n2)c(OC)c1
 : 112, 112
CCOc1ccc(CNCc2c(C(=O)O)n(Cc3ccc(C)cc3)c3cc(C)ccc23)cc1
 : 105, 110
CSc1cccc(NC(=O)CN2C(=O)COc3ccc(S(=O)(=O)N4CCC(C)CC4)cc32)c1
 : 121, 122
COc1ccc(N(CC(=O)NCc2ccccc2Cl)S(=O)(=O)c2c(C)nn(C)c2C)cc1
 : 107, 105
Cc1c(C(=O)Nc2ccc(F)cc2F)oc2c1-c1nn(Cc3c(F)cccc3Cl)cc1CC2
 : 104, 99
O=C(Cn1c(=O)n(CC2CCC(C(=O)NCCc3ccccc3)CC2)c(=O)c2ccccc21)Nc1ccccc1 (stereo not given)
 : 108, 105
COC(=O)c1ccccc1NC(=O)CSc1nc2ccccc2nc1Cc1ccc(F)cc1
 : 108, 109
Cc1nn2c(=O)cc(COC(=O)c3cccc(NC(=O)c4ccc(C(C)(C)C)cc4)c3)nc2s1
 : 110, 109
CC12CN3CC(c4ccccc4)(CN(C1)C3c1ccc(Cl)cc1)C2=O (stereo not given)
 : 111, 112
COc1ccccc1N1CCN(C(=O)c2nn(C)c3c2CS(=O)(=O)c2ccccc2-3)CC1
 : 112, 106
CCOc1ccc(NC(=O)N2CCN3CCCCC3C2)cc1 (stereo not given)
 : 106, 103
Clc1ccc2c(c1)-c1c(cnc3cc(-c4ccccc4)nn13)CO2
 : 107, 111
Cc1ccc(Cn2c(C(=O)O)c(CNCc3cccs3)c3ccc(C)cc32)cc1
 : 110, 107
COc1ccccc1CNC(=O)c1ccc(N2CCCC2)c(NC(=O)NCc2ccccc2)c1
 : 109, 111
O=C(Nc1ccccc1Cl)N1CCC2(CC1)Oc1ccccc1C(=O)N2Cc1ccc(F)cc1
 : 106, 111
Cc1ccc(C)c(CSC2=NC(C)(C)Nc3ccccc32)c1
 : 100, 107
COc1cccc(-c2cn3c(n2)sc2cc(C(=O)NCCC4=CCCCC4)ccc23)c1
 : 110, 110
Cc1ccc(CNS(=O)(=O)c2cc3c(cc2Cl)NC(=O)CO3)o1
 : 109, 100
CCn1cc(C(=O)NCCCN2CCC(C)CC2)c(=O)c2cc(S(=O)(=O)N(C)C3CCCCC3)ccc21
 : 105, 108
Cc1nn2c(=O)cc(COC(=O)c3ccccc3NC(=O)C(C)Oc3ccccc3)nc2s1 (stereo not given)
 : 109, 106
CCc1cccc(C)c1Nc1c(-c2cccc(O)c2)nc2cnccn12
 : 105, 102
COc1cccc(-n2c(SCC(=O)N3CCCCC3)nc3c([nH]c4ccccc43)c2=O)c1
 : 103, 108

Next compounds.
Screens in order – PV pol inh, PV pol inh intensity
CCOc1ccccc1NC(=O)c1nc(S(=O)(=O)Cc2cccc(C)c2)ncc1Cl
 : 104, 98
CCC(C)n1c(=N)c(C(=O)NCc2ccccc2)cc2c(=O)n3cc(C)ccc3nc21 (stereo not given)
 : 111, 115
CN(C(=O)c1c[nH]c2ccc(S(=O)(=O)Nc3cccc(C(F)(F)F)c3)cc2c1=O)C1CCCCC1
 : 104, 108
Cc1ccccc1CNC(=O)c1cccc(NC(=O)N2CCSc3ncccc32)c1
 : 106, 95
COc1ccc(Oc2nc3c(c(=O)n(C)c(=O)n3C)n2Cc2ccccc2Cl)cc1
 : 104, 106
COc1ccc(CNC(=O)Cn2nc(N3CCN(c4ccccc4)CC3)ccc2=O)c(OC)c1
 : 112, 115
CC1CCN(C(=O)Cn2cc(SCC(=O)NCc3ccccc3)c3ccccc32)CC1
 : 111, 112
Oc1ccc(Cl)cc1Nc1nc2ccccc2n2cnnc12
 : 108, 122
COc1cc(NS(=O)(=O)c2ccc(NC(=O)c3cccc(F)c3)cc2)nc(OC)n1
 : 100, 101
Cc1ccc(NC(=O)Cn2nc(-c3ccncc3)ccc2=O)cc1Cl
 : 104, 95
O=C(CCC1N=C2c3ccccc3N=C(SCC(=O)Nc3ccc(F)cc3)N2C1=O)NCc1cccs1 (stereo not given)
 : 107, 102
CCOc1ccccc1NC(=O)Cn1c(=O)n(Cc2cccs2)c(=O)c2cccnc21
 : 102, 105
CCc1ccc2oc(C(=O)Nc3cc(Cl)ccc3OC)cc(=O)c2c1
 : 105, 103
Cc1c2cnn(CC(=O)NCc3ccc(F)cc3)c(=O)c2c(C)n1Cc1ccccc1Cl
 : 110, 112
Cc1nn(C(C)C(=O)N2CCN(c3ccc(F)cc3)CC2)c(=O)c2c1sc1ccccc12 (stereo not given)
 : 110, 105
CCc1ccc(NC(=O)CN(c2ccc(C)cc2)S(=O)(=O)c2cccs2)cc1
 : 106, 106
COC(=O)c1ccccc1NC(=O)Cn1nc(C)c2nn(-c3ccc(Cl)cc3)c(C)c2c1=O
 : 111, 116
Cc1noc2ncnc(NCCc3ccccc3)c12
 : 104, 109
Cc1cc(C)cc(-n2ccnc2SCC(=O)Nc2nc3ccc(C)cc3s2)c1
 : 106, 109
Cc1c(Cl)cccc1NC(=O)CCn1c(=O)c2cccn2c2ccccc21
 : 110, 112
COc1ccc(-n2nc(C(=O)N3CCC(C)CC3)c3c4ccccc4n(C)c3c2=O)cc1Cl
 : 105, 108

Assay outcomes deposited in PubChem by ICCB-Longwood Screening Facility, Harvard Medical School.
